TRPV1 PAM: HTS Assay for Compounds that Act as Potentiators of the Vanilloid Receptor 1 | TRPV1-expressing cells, Fluo-8 calcium influx, capsaicin EC20 potentiation; host cell line not named in the record; control for the full effect not named in the record | hit rate 0.02% among 320,000 | potentiation, % at 8.33 µM; active means potentiation above 80%; inconclusive means 30% to 80%; inactive means below 30%; also: 0% is about no effect
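Cells expressing TRPV1 were dye-loaded with Fluo-8 and read kinetically: 10 s baseline, 3 min after compound (agonist portion), then 2 min after EC20 capsaicin (allosteric enhancer portion). Calcium-bound dye fluorescence at 480/520 nm.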
CtBP-E1A inh: qHTS Assay for Inhibitors of the CtBP/E1A Interaction | activity change, % (no concentration beside the values) | AID 651724, 2012 | AlphaScreen GST-E1A/His-CtBP binding, 1536-well; active compounds read low; control for the full effect not named in the record | hit rate 0.49% among 340,000 | CtBP / adenovirus E1A interaction (AlphaScreen); in the data active means activity change below about -65%; inconclusive means about -30% to -65%; inactive means above about -30%; also: % is scaled to controls: 0 for no effect and ±100 for the full control effect
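AlphaScreen with 125 nM GST-E1A and 125 nM His-CtBP (5X stocks) in Tris pH 8.0, 300 mM NaCl, BSA, Tween 20, TCEP. Compounds preincubated 2 h at 37 deg C, then glutathione donor/nickel acceptor beads added for 1 h at 37 deg C in dark.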
Sfp PPTase inh: qHTS Assay for Inhibitors of Bacillus subtilis Sfp phosphopantetheinyl transferase (PPTase); Potency, µM, for inactives: max response, negative = inhibition, hits mostly inhibitors; Biochemical Sfp PPTase activity, qHTS; hit rate 3.5% among 310,000; 4'-phosphopantetheinyl transferase ffp (Bacillus subtilis), Q9F4F7; active = well fitted inhibition curve with a large enough effect; inconclusive = small, poorly fitted or top-dose-only effect, or another doubt; inactive = no such curve, though single readings can be large or run the other way;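 also: the enzyme is Sfp with the accession as filed and its product quenches rhodamine fluorescence; potency is read from the fitted curve at half-maximal effect; 0% = enzyme reaction without inhibitor and -100% = no enzyme wells; top concentration of the series not given in the record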
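Fluorescence-quenching assay with 15 nM Sfp, 5 uM rhodamine-CoA and 12.5 uM BHQ-2-labelled ybbR peptide in pH 7.6 Hepes/MgCl2 buffer. Enzyme was pre-incubated with compound for 15 min at room temperature. Rate was taken from the 30-min fluorescence change (525/598 nm).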
PINK1 expr mod: A Quantitative High throughput Screen to Identify Chemical Modulators of PINK1 Expression | hit rate 0.2% among 410,000 | AID 624263, 2012 | PINK1 immunofluorescence, high-content cytometry, 24 h | Potency, µM (highest dose often 76.6 µM), inactives show at the highest dose activation (PINK1 increase), usual class: activators; active = well fitted activation curve with a large enough effect; inconclusive = small, poorly fitted or top-dose-only effect; inactive = flat fitted curve, though single readings scatter; cell line not stated here;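 also: potency is read from the fitted curve at half-maximal effect; % of control where 0% means no effect; nearly all actives have a fitted effect of over 65% in size; a mitochondrial uncoupler was the plate control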
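Cells are seeded, rested 12 hours, then given compound at five concentrations or DMSO for 24 hours. After fixation, blocking and antibody staining, PINK1 amount and mitochondrial localization are scored; CCCP serves as control.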
Six1-Eya2 inh: qHTS Assay for Inhibitors of the Six1/Eya2 Interaction. Homeobox protein SIX1 (Homo sapiens) + Protein phosphatase EYA2 (Homo sapiens), …. AlphaScreen GST-Six1/His-Eya2 binding, biochemical; active compounds read low; control for the full effect not named in the record. activity change, % (no concentration beside the values). hit rate 0.56% among 360,000. AID 651725, 2012; in the data active = activity change below about -65%; inconclusive = about -30% to -65%; inactive = above about -30%; also: % is scaled to controls: 0 for no effect and ±100 for the full control effect
Target sequence (O00167 whole entry, looked up): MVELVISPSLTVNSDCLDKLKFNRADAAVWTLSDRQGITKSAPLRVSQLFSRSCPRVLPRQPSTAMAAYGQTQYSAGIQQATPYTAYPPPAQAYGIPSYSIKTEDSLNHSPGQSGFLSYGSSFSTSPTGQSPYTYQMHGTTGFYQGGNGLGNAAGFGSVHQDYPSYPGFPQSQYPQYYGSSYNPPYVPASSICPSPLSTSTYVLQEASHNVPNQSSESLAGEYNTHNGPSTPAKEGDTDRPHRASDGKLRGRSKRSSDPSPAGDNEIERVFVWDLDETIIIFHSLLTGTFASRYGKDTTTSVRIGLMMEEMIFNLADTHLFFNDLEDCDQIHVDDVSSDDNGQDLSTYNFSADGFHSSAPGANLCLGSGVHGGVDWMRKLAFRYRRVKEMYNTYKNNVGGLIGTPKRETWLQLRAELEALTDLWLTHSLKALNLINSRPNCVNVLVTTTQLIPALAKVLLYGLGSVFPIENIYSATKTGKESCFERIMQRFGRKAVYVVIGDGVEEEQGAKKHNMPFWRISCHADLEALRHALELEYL
Target sequence (Q15475 whole entry, looked up): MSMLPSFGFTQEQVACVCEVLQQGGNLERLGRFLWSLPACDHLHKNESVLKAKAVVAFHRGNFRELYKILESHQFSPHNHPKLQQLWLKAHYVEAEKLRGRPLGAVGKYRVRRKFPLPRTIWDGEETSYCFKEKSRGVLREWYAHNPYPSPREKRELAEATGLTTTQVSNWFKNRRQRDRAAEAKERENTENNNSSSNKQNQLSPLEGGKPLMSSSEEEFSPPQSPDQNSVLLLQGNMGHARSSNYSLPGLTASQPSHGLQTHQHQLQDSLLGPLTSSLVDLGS
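GST-Six1 + His-Eya2 (5X stock: 250/500 nM); Tris pH 8.0, 300 mM NaCl, 0.05% BSA, 0.02% Tween 20; GSH donor/Ni acceptor beads; 1 h 37 °C dark; AlphaScreen readout.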
D2 ag: Beta-Arrestin HTS for Positive Allosteric Modulators of the Human D2 Dopamine Receptor: Agonists. AID 624465, 2012. hit rate 0.084% among 360,000. D(2) dopamine receptor (Homo sapiens), P14416. activation, % (concentration not given with the values). DiscoveRx PathHunter D2 beta-arrestin, luminescence, 90 min; 100% = 57 uM dopamine signal; in the data active = activation above about 40%; inconclusive = about 15% to 40%; inactive = below about 15%; also: compound concentration not given in the record; the text of the record calls up to 30% inactive
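DiscoveRx PathHunter D2 beta-arrestin cells (2,100/well) attached overnight, then compound-stimulated 90 min at 37 C in HBSS/10 mM HEPES/0.1% Tween-20 buffer; beta-galactosidase complementation read by luminescence after 1 h at ambient temperature. Dopamine 57 uM final (EC100) as control.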
D2 potentiator: Beta-Arrestin HTS for Positive Allosteric Modulators of the Human D2 Dopamine Receptor: Potentiators; DiscoveRx D2 beta-arrestin cells, luminescence, 90 min; 100% = 57 uM dopamine signal; hit rate 0.23% among 360,000; D(2) dopamine receptor (Homo sapiens), P14416; potentiation, % (test concentration not listed); active = potentiation of 50% or more; inconclusive = 30% to 50%; inactive = 30% or less;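 also: compound concentration not given in the record; tested on top of an EC20 dose of dopamine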
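D2 cells co-treated with compound plus 50 nM dopamine (EC20) for 90 min at 37 deg C to detect potentiation. Beta-arrestin recruitment was read as enzyme-fragment luminescence after 1 h at ambient temperature. Full response was set by 57 uM dopamine.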
Starred values were filed as active, the others as inactive; ? = inconclusive; · = no result given; & = joins results of further samples; [ ] = another dose, or the depositor's remark.

SMILES	TRPV1 PAM	CtBP-E1A inh	Sfp PPTase inh	PINK1 expr mod	Six1-Eya2 inh	D2 ag	D2 potentiator
O=C1C=C(c2ccccc2)CCC1	1	-14	0%&11%	0.4%	4	-0.3	-20
Cc1ccc(S(=O)(=O)N/N=C/c2ccc(C(=O)O)cc2)cc1	10	5	-14%	0.8%	-3	-6.1	-13
COC(=O)CCC(=O)OC1(C)C(=O)C2=CN(C3CCCC3)C(c3ccc(OC)cc3)=CC2=C(Br)C1=O (centres undefined)	-21	-2	?	2.1%	-13	7.7	-8
O=C1CN(C(=O)COC(=O)CCSc2ccccc2Cl)c2ccccc2N1	26	3	6%	4.7%	-3	1.3	-22
Cc1cc(C)c(CN2CCC(n3nccc3NC(=O)CCOc3ccccc3)CC2)cc1C	-1	-2	5%	3.7%	-8	1.9	-31
CC(NC(=O)COC(=O)C1CCN(S(=O)(=O)c2ccccc2C(F)(F)F)CC1)c1ccccc1 (centres undefined)	3	-4	3%	-1.3%	7	-2.4	-1
CCOCCCNC(=O)C(NC(=O)c1ccccc1O)c1ccc(C)cc1 (centres undefined)	-4	-23	9%	-1.0%	5	-3.5	-14
COc1ccc(C(=O)Nc2cc([N+](=O)[O-])ccc2N2CCCC2)cc1	9	-2	5%	2.4%	-2	-7.7	-12
CNC(=O)c1cccc(NC(=O)C(C)c2ccc3cc(OC)ccc3c2)c1 (centres undefined)	-19	-3	9%	1.1%	-1	-2.7	-4
Cc1cnc(C)c(Nc2nc(C(N)Cc3ccc(C(F)(F)F)cc3)cs2)n1 (centres undefined)	·	-26	·	-1.1%	-19	2.4	-10
Cc1ccc2nc(NC(=O)CNS(=O)(=O)c3ccc(Br)s3)sc2c1	-1	5	1%	8.7%[38.3 µM]	1	0.6	0
CCOc1ccc(/C=N/NC(=O)CN2CCSCC2)cc1	2	-14	-18%	-2.5%	4	0.4	-2
COc1ccc(C(=O)/C=C(/C)N(C)C)cc1	-10	-6	14%	-0.4%	3	1.6	-17
O=C(/C=C/Nc1ccc(S(=O)(=O)Nc2ncccn2)cc1)c1cccs1	-5	3	10%	2.7%	4	1.7	2
O=C(Nc1cccc(-c2cn3cccnc3n2)c1)c1ccc2c(c1)OCO2	-25	?	6%	-1.3%[38.3 µM]	?	3.0	15
Cc1cccc(C(=O)OCC(=O)NCC2CCCO2)c1O (centres undefined)	-6	0	·	-1.2%	5	-2.7	-3
Cc1ccc(-n2ncc3c(NCCCN4CCOCC4)ncnc32)c(C)c1	-8	24	5%	-0.1%	8	1.6	-7
O=C1N=C(c2ccccc2)C(c2ccccc2)N1 (centres undefined)	1	-4	6%	-1.2%	-8	-1.4	4
CCOc1ccc(CCNC(=O)c2cc3c(C)nccc3[nH]c2=O)cc1OCC	6	-11	8%	1.1%	-2	1.0	17
Cn1c(=O)oc2cc(S(=O)(=O)CCC(=O)Nc3ccccc3)ccc21	-5	6	16%	-1.0%	0	-3.4	-9
O=C(O)c1ccc(CNCc2ccccc2Cl)cc1	-1	-3	3%	0.4%	0	-3.3	-15
CC(=O)Nc1cccc([N+](=O)[O-])c1	3	·	14%	1.1%	7	-3.8	-1
Cc1cc2nc(-c3ccc(NC(=O)c4cccnc4)cc3)oc2cc1C	9	5	-8%	7.5%	-2	1.4	26
CC(C)CC1(C)NC(=O)N(CC(=O)Nc2ccc3c(c2)OCCO3)C1=O (centres undefined)	·	-11	·	-0.3%	13	-1.0	-7
C=CCNC(=O)c1onc(CSc2cc(C)cc(C)c2)c1C(=O)O	5	-12	-1%	1.5%	-1	-0.3	-1

Entries of single compounds, looked up by structure. Values in the order: TRPV1 PAM	CtBP-E1A inh	Sfp PPTase inh	PINK1 expr mod	Six1-Eya2 inh	D2 ag	D2 potentiator
COc1ccc(C(=O)Nc2cc([N+](=O)[O-])ccc2N2CCCC2)cc1 in the list: 9	-2	5%	2.4%	-2	-7.7	-12
Cc1cnc(C)c(Nc2nc(C(N)Cc3ccc(C(F)(F)F)cc3)cs2)n1 (centres undefined) in the list: ·	-26	·	-1.1%	-19	2.4	-10
O=C1CN(C(=O)COC(=O)CCSc2ccccc2Cl)c2ccccc2N1 in the list: 26	3	6%	4.7%	-3	1.3	-22

Other records follow:
SMILES	TRPV1 PAM	CtBP-E1A inh	Sfp PPTase inh	PINK1 expr mod	Six1-Eya2 inh	D2 ag	D2 potentiator
CCn1nc(C(=O)NC2=NCCS2)c2ccccc2c1=O	-9	-2	5%	-1.5%	-3	-0.8	24
CCCCC(C(=O)NC1CCCC1)N(C(=O)c1snc(C(N)=O)c1N)c1ccc(F)cc1 (centres undefined)	3	8	30%[activator]	3.7%	10	-8.2	3
O=C(C1CCCCN1S(=O)(=O)c1ccc(F)cc1)N1CCN(c2ccccc2F)CC1 (centres undefined)	-3	5	3%	2.8%	1	-6.1	-11
Cc1cc(C)cc(NC(=O)C(=O)NCC2CCCO2)c1 (centres undefined)	-15	·	-12%	0.9%	1	-3.5	-1
Cc1c(NC(=O)c2ccc(C(C)(C)C)cc2)cccc1[N+](=O)[O-]	-3	12	-4%	4.1%	0	3.8	14
COc1cccc(NC(=O)C2CCC(CNS(=O)(=O)c3ccc4c(c3)CC(C)N4C(C)=O)CC2)c1 (centres undefined)	2	-15	7%	-0.6%&2.4%	1	-1.0	-22
CCN(CC)C(=O)NC1CC2CCCC(C1)N2Cc1ccccc1 (centres undefined)	0	-3	14%	-1.9%	-2	2.6	-35
O=C(c1ccc2c(c1)OCO2)C1CCCN(Cc2ccc3nsnc3c2)C1 (centres undefined)	12	1	2%	2.8%	-7	-1.6	-22
COc1ccc(-c2[nH]ncc2CNC(C)CCn2cccn2)c(F)c1 (centres undefined)	-8	-7	1%	2.1%	-8	-3.4	-8
Cc1ccc(F)c(S(=O)(=O)NC(=O)C2(C)CCN2C(=O)Cc2ccc(-c3ccccc3)cc2)c1 (centres undefined)	·	4	·	1.0%	-5	5.7	3
COc1ccc(N(CC(=O)NCc2ccco2)C(=O)CCC(=O)Nc2nccs2)c(OC)c1	2	-19	9%	0.9%	12	-7.7	-5
COc1cc2cc(C[C@H](C)O)oc(=O)c2cc1OC	1	·	·	-0.8%	1	1.7	-2
O=C(NCCCN1CCCC1=O)c1cccc(S(=O)(=O)Nc2ccc(F)cc2)c1	-2	-20	·	-0.8%	7	1.8	-10
Cc1cccc(NC(=O)Nc2ccc(F)cc2)n1	15	8	19%	-0.5%&-1.1%	6	0.1	-1
COc1ccccc1C(=O)NCc1nnc(SC(C)C(=O)Nc2nccs2)n1C (centres undefined)	?	-7	11%	-0.1%	-1	-0.2	-11
O=C(CSCc1ccccc1)Nc1cccc(F)c1	12	4	11%	2.9%	-1	-6.2	-9
CNc1ccc2c3c(cccc13)C(=O)N(C)C2=O	-3	·	-8%	0.6%	-11	5.3	18
COc1ccc(NC(=O)CCSc2nnc(C)s2)cc1	4	0	-11%	-0.6%	3	-1.3	-13
COc1ccc2[nH]c(=O)c(CN(CCCN(C)C)C(=O)Nc3ccc(F)cc3)cc2c1	-5	-4	5%	-0.5%	0	-2.1	-27
Cc1c(C)n(-c2ccc(Cl)cc2)c2ncnc(N)c12	7	-10	-2%	-2.1%	-7	-3.4	0
CCOCCCNC(=O)CN(c1cc([N+](=O)[O-])ccc1OC)S(C)(=O)=O	-26	-1	1%	-0.5%	0	-3.1	-14
COc1ccc(/C=N/N2C(C)CCCC2C)cc1OC (centres undefined)	5	4	6%	-0.3%	3	2.7	-4
O=C(CSc1ccc(-c2ccco2)nn1)NCc1ccccc1Cl	22	0	-2%	0.2%	-8	-5.8	6
Cc1ccc(NC(=O)CN2C(=O)NC3(CCc4ccccc43)C2=O)cc1S(=O)(=O)N1CCCCC1 (centres undefined)	-3	-4	·	0.1%	-2	-1.4	6
Cc1cc(Nc2ccc3c(c2)OCCO3)c2cc(Cl)ccc2n1	14	-11	12%	18%	-9	-4.3	-30

Arranged by heavy-atom count (rising): part of the list above.
SMILES	TRPV1 PAM	CtBP-E1A inh	Sfp PPTase inh	PINK1 expr mod	Six1-Eya2 inh	D2 ag	D2 potentiator
Cc1c(NC(=O)c2ccc(C(C)(C)C)cc2)cccc1[N+](=O)[O-]	-3	12	-4%	4.1%	0	3.8	14
O=C1CN(C(=O)COC(=O)CCSc2ccccc2Cl)c2ccccc2N1	26	3	6%	4.7%	-3	1.3	-22
COC(=O)CCC(=O)OC1(C)C(=O)C2=CN(C3CCCC3)C(c3ccc(OC)cc3)=CC2=C(Br)C1=O (centres undefined)	-21	-2	?	2.1%	-13	7.7	-8

Going on with the list.
SMILES	TRPV1 PAM	CtBP-E1A inh	Sfp PPTase inh	PINK1 expr mod	Six1-Eya2 inh	D2 ag	D2 potentiator
C=CCOC(=O)COc1ccc2c(C)c(C)c(=O)oc2c1C	0	-1	6%	8.0%[38.3 µM]	-1	0.4	-2
O=C(CCc1ccccc1)OCC(=O)c1ccc(Br)cc1	3	1	9%	1.1%	9	-0.7	-8
O=S(=O)(c1ccc(F)cc1)N1CCC(N2CCCCCC2)CC1	1	-7	-8%	1.5%	6	-2.0	-13
COc1ccccc1N1CCN(C(=O)/C=C/c2ccc3c(c2)OCO3)CC1	?	0	-5%	?	-6	0.6	-4
CC(=O)Nc1c(Br)cc(N2C(=O)CCC2=O)cc1Br	-13	9	12%	-1.2%	1	1.2	3
Nc1ccc(N2CCCCC2)c(S(=O)(=O)Nc2ccc(Cl)cc2)c1	·	·	11%	1.3%	-9	-5.6	-19
Cc1ccccc1OCCn1c(=O)sc2ccccc21	11	22	3%	5.7%	17	2.2	8
Nc1[nH]c(C(=O)c2ccccc2)c(-c2ccc(Cl)cc2Cl)c1C(=O)c1ccc(Cl)c(Cl)c1	·	-23	·	-0.9%	14	·	·
Cc1ccccc1NS(=O)(=O)c1ccc(C(=O)N2CC(C)OC(C)C2)cc1 (centres undefined)	-9	-18	·	-0.1%	4	-0.9	9

Screening data as filed in PubChem BioAssay.
